NPYLR7 agonist = agonists of mosquito NPYLR7 receptor, primary screen, cell-based, Aedes aegypti, calcium fluorescence, mosquito biting behavior; Aedes aegypti neuropeptide Y-like receptor 7 (NPYLR7); HEK293T NPYLR7/Galpha15, GCaMP6s calcium fluorescence; activation, % at 10 µM; 0.15% of 270,000 active; AID 1259423, 2018; in the data active = activation above about 40%;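 note: 0% = vehicle and 100% = reference agonist at the receptor; some compounds past the cut are filed as inactive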
NPYLR7 agonist max-min = further read-out of NPYLR7 agonist, marked with its call; activation, %; measured here: Max-Min RFU normalised activation; some inactives read as strong as hits;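 span of the calcium signal over five minutes; 0% = vehicle and 100% = native peptide agonist; compound fluorescence can raise it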
Starred values were filed as active, the others as inactive; & = joins results of further samples. Only part of the results is shown; rates above refer to the full screens.

Molecule	NPYLR7 agonist	NPYLR7 agonist max-min
C=CCn1c(SCc2ccc(C(=O)c3ccccc3)cc2)nnc1-c1cc(-c2cccs2)nc2cc(C)c(C)cc12	-6	-9
Cc1nc(NCc2cn[nH]c2-c2ccc(F)cc2)c2cnn(C)c2n1	0	-2
CC(=O)NC(C)(C#N)c1ccccc1 (configuration not stated)	-5	-4
COC(=O)C(C#N)c1nc2ccccc2nc1NCCCN1CCCCC1C (configuration not stated)	1	-4
CCC1CN(C(=O)NC2CCCc3c2cnn3Cc2ccccc2)CCO1 (configuration not stated)	3	-3
Cc1ccc(C)c(Cc2c(C)nc(C)nc2N2CCN(C(=O)c3cccc(Br)c3)CC2)c1	18	24
CC1(C(=O)Nc2cnc3ccccc3c2)CCN1Cc1ccccc1Cl (configuration not stated)	-4	-4
COc1ccc(C2CC2C(=O)O[C@H]2C(=O)OCC2(C)C)cc1 (some centres not stated)	1	3
COc1cccc(-c2ccc(NC(=O)C3CCCN(C4CCSCC4)C3)cc2)c1 (configuration not stated)	-4&4	-7&2
Nc1nnc(SCC(=O)c2ccc3c(c2)CCC3)s1	0	8
O=C(NC(c1ccccn1)C1CCCC1)c1cnccn1 (configuration not stated)	-3	-4
Clc1cccc2c1nc(-c1ccccc1)n1nnnc21	16	12
CCN(CC)C(=O)c1cn(C2CCN(C(=O)C3(N)CCCC3)CC2)nn1	-5	-10
Cc1cc(=O)[nH]c(-n2nc(C3CC3)cc2NC(=O)c2ccc(C(F)(F)F)cc2)n1	2	0
O=C(N/N=C\c1ccc([N+](=O)[O-])s1)c1cc(-c2ccccc2)nc2ccccc12	20	22
CC1=C(C(=O)OCC(C)C)C(c2ccc(NC(=O)c3ccc(C)c([N+](=O)[O-])c3)cc2)NC(=S)N1C (configuration not stated)	15	20
CCOc1cc(/C=C2\C(=N)N3N=CSC3=NC2=O)ccc1OC(=O)c1cccs1	-1	-3
COc1ccc(Cl)cc1NC(=O)CNc1ccc2c(c1)OC(F)(F)O2	0	-4
Cc1cc(Nc2ccccc2)nc(N2CCN(C(=O)CCC3CCCCC3)CC2)n1	8	3
CCOCCCn1c(SCc2ccccc2Br)nc2cc(S(=O)(=O)N3CCCC(C)C3)ccc21 (configuration not stated)	14	8
COC(C(=O)Nc1ccc(C#N)cc1Br)c1ccccc1 (configuration not stated)	3	-1
CCS(=O)(=O)NCC(c1cccs1)S(=O)(=O)c1ccc(C)cc1 (configuration not stated)	0	-1
CC(=O)N(CCN(C)C)Cc1c(-c2ccc(F)cc2)noc1N1CCN(C)CC1	8	9
Cc1cc(C)c(NC(=O)c2sc3ccccc3c2Cl)c(C)c1	-6	-12
Cc1ccc(C2Nc3ccccc3N=C3CC(c4ccccc4)CC(=O)C32)o1 (configuration not stated)	3	1
Cc1cn2c3c(=O)n(Cc4ccccc4F)c(=O)n(C)c3nc2n1Cc1ccco1	6	2
O=C(CCc1ccc(=O)[nH]n1)N1CCCC(c2ccn[nH]2)C1 (configuration not stated)	6	3
Nc1nnc(Cc2ccsc2)o1	15	12
CCCn1ccnc1CN1CCN(Cc2ccc(Cl)cc2)CC1	3	2
Cc1ccc(-c2csc(C(C#N)C=Nc3ccc(S(=O)(=O)Nc4cc(C)on4)cc3)n2)c(C)c1 (configuration not stated)	1	1
O=C(CCN1Cc2ccccc2C1=O)NCc1cnn2ccccc12	-4	-7
Cc1cccc(-c2n[nH]c(=S)n2-c2ccccc2C)c1	-9	-2
O=C(N[C@H](CO)Cc1ccccc1)c1cccnc1Oc1cccc([N+](=O)[O-])c1	18	2
Cc1ccc(C(=O)Nc2cccc(F)c2)cc1S(=O)(=O)N1CCOCC1	2	-1
Cc1ccc(C2COCCN2C(=O)NC(C)Cc2ccsc2)o1 (configuration not stated)	0	-2
O=C1NCCN(CC(c2ccccc2)c2ccccc2)C1CC(=O)N1CCCO1 (configuration not stated)	7	2
COc1ccc(CN2CCN(Cc3cnn(C)c3)CC2CCO)c(C)c1C (configuration not stated)	-6	-8
CCOCC1CCN(S(=O)(=O)c2sc3c(c2C(=O)O)CCNC3)CC1	2	1
Cc1nc(C2(NC(=O)c3cc4ccc(C(C)(C)C)cc4[nH]3)CCCCC2)no1	14	14
CC(C)CN(CC(=O)N(Cc1cccn1Cc1ccccc1Cl)C1CCCCC1)C(=O)c1cccc(F)c1	-2	4
Cc1ccccc1CN(CCN1CCOCC1)CC(O)COc1ccc(Cl)cc1 (configuration not stated)	17	27
O=C(CSc1ncnc2sccc12)Nc1ccnn1C1CCCC1	0	-1
CC(C)S(=O)(=O)Oc1ccc(CN(CC2CCCO2)C(=O)NC(C)(C)C)cc1 (configuration not stated)	-5	2
O=C(/C=C/c1cscn1)NCc1cccc(N2CCCCC2=O)c1	13	10
O=C(COc1ccccc1)N1CCN(c2ccc(-c3cccs3)nn2)CC1	-2	-3
O=C(Cn1nnnc1CN1CCCC1)N1CCC(N2CCc3ccccc3C2)CC1	-6	-7
NC(=O)C1CCN(Cc2csc(-c3ccccc3)n2)CC1	1	0
Cc1nc(C2CCCN(C(=O)NCc3ccccc3C)C2)no1 (configuration not stated)	7	1
COc1ccccc1N1CCN(c2ccc(NC(=O)Nc3cc(C(F)(F)F)cc(C(F)(F)F)c3)cc2C(=O)NCc2ccc(F)cc2)CC1	-9	-11
O=C(CSc1nnc(NC(=O)Cc2ccccc2)s1)Nc1nccs1	-4	-10
CN1CCC2(CC1)CCN(C(=O)CCn1nnc3ccccc31)C2	1	0
CC(=O)Nc1ccc(-c2nnc3ccc(-c4ccc(C(C)C)cc4)cn23)cc1	8	-5
CCC(CO)Nc1cncc(-c2ccc(C(C)C)cc2)n1 (configuration not stated)	-5	-6
O=C(OCc1cc(-c2ccc(Cl)cc2)on1)c1ccco1	-1	-2
COc1cccc(-c2cccc(-c3ccc(NC(=O)c4ccc(F)cc4C(F)(F)F)cc3)n2)c1	-13	-8
CC(C(=O)O)N1C(=O)C2CC=CCC2C1=O (configuration not stated)	0	0
CC1(C)CC(NC(=O)N2CCCC2Cc2cccc(F)c2)CC(C)(C)N1 (configuration not stated)	3	-5
Cc1ccc2oc(C(=O)N(Cc3ccccn3)C[C@@H]3CCC(=O)N3)cc2c1	-2	14
CC(=O)Nc1sc(C)c(C)c1C(=O)OCC(=O)Nc1ccc(Cl)cn1	10	8
CCOc1ncccc1NS(=O)(=O)c1ccc(C(=O)OC)o1	0	1

(list continues)
Molecule	NPYLR7 agonist	NPYLR7 agonist max-min
CC1CCC(C(=O)NCC2CCOC2)C2C(=O)N(c3ccccc3)C(=O)C12 (configuration not stated)	-3	61
Cn1c(=O)cc(N2CCC[C@@H](N)C2)n(Cc2cc(F)ccc2C#N)c1=O	19	6
O=C(NCCC(F)(F)F)C1Cc2c(-c3cccc(F)c3)ccnc2O1 (configuration not stated)	6	7
COc1ccc(Br)c(C(=O)Nc2cc(C(=O)NCc3cccs3)ccc2N2CC3CC(C2)c2cccc(=O)n2C3)c1 (configuration not stated)	-6	-2
COc1ccc(C(=S)N2CCN(C(=S)c3ccccn3)CC2)cc1	4	8
O=C(N[C@@H]1CCCCC1NC(=O)C1CCN(S(=O)(=O)c2ccc(Cl)cc2)CC1)c1ccccc1 (some centres not stated)	2	1
CN(C)Cc1nc(C(=O)N2CCNCC2C(=O)N2CCCC2)cs1 (configuration not stated)	20	11
CCOC(=O)C1=C(c2ccccc2)ON(C)C1c1ccccc1 (configuration not stated)	2	6
Cc1ccnc(CC(C)N(C)C(=O)c2c[nH]c(=O)cn2)c1 (configuration not stated)	3	3
O=c1ccc(-c2ccccc2)nn1CCN1CCN(S(=O)(=O)c2ccccc2C(F)(F)F)CC1	-5	2
Cn1ccnc1C(=O)N(CCO)CCSc1ccc(Cl)cc1	4	0
CC(N)c1nnc2ccccn12 (configuration not stated)	1	8
Cn1nc(C(=O)N2CCCC(CCC(=O)NCc3ccc(F)c(F)c3)C2)ccc1=O (configuration not stated)	0	-2
COc1cccc(-c2cc(C(=O)N3CCN(Cc4ccccc4)CC3)nc3cc(-c4ccccc4)nn23)c1	-5&20	-5&32
Cc1c(-c2noc(-c3ccc(N(C)C)cc3)n2)nnn1Cc1ccccc1	-8	-10
CCCCN(CC(=O)N1CCc2sccc2C1c1ccc(Cl)cc1)S(=O)(=O)c1cccc2cccnc12 (configuration not stated)	12	16
Cc1cccc(NC(=O)C(C)N2CC(C)C2c2ccccc2)c1 (configuration not stated)	-4&2	-5&1
CC(C)c1ccc(NC(=O)Cn2nc(-c3ccccc3)c3sc(N4CCOCC4)nc3c2=O)cc1	-2	-5
CCCn1ccc2cc(NC(=O)NCc3ccc4c(c3)OCO4)ccc21	-1	-4
Cc1cc(C)c(-c2ccc(=O)n(CC(=O)NC3CCCCC3)n2)cc1C	8	4

Structures from the list above with a furan ring, fused or not (six):
Molecule	NPYLR7 agonist	NPYLR7 agonist max-min
Cc1ccc(C2Nc3ccccc3N=C3CC(c4ccccc4)CC(=O)C32)o1 (configuration not stated)	3	1
Cc1cn2c3c(=O)n(Cc4ccccc4F)c(=O)n(C)c3nc2n1Cc1ccco1	6	2
Cc1ccc(C2COCCN2C(=O)NC(C)Cc2ccsc2)o1 (configuration not stated)	0	-2
O=C(OCc1cc(-c2ccc(Cl)cc2)on1)c1ccco1	-1	-2
Cc1ccc2oc(C(=O)N(Cc3ccccn3)C[C@@H]3CCC(=O)N3)cc2c1	-2	14
CCOc1ncccc1NS(=O)(=O)c1ccc(C(=O)OC)o1	0	1

Following part
Molecule	NPYLR7 agonist	NPYLR7 agonist max-min
CN(C(=O)c1ccco1)C(c1cccc(F)c1)c1ccccn1 (configuration not stated)	1	0
COc1cccc(OC(C)c2n[nH]c(Cc3ccccc3)n2)c1 (configuration not stated)	26	8
O=C(CSc1nnc(-c2ccncc2)n1C1CC1)N1CCCCCCC1	-5	-1
CCn1nc(C)c(NC(=O)CN(C)Cc2cnn(-c3cccc(C)c3)c2)c1C	0	-4
CCC(C)NC(=O)c1c(O)nc2ccccn2c1=O (configuration not stated)	-1	27
CC1NC(=S)N(c2ccc3oc(C4CC4)nc3c2)C1=O (configuration not stated)	4	3
c1nc(NCC23CC4CC(CC(C4)C2)C3)c2sccc2n1	6	3
Cc1ccc(Cl)cc1Nc1ncccc1C(=O)Nc1ccc(C(C)C)cc1	-5	-10
O=C(CN1C(=O)c2cc(Cl)c(Cl)cc2C1=O)N1CCNC1=O	5	3
COc1cc([N+](=O)[O-])cc(/C=N\NC(=O)Cn2cnc([N+](=O)[O-])n2)c1O	-17	-26
CC1(C)ON=C(c2ccc3c(c2)OCO3)N(Cc2ccc(S(C)(=O)=O)cc2)C1=O	-2	-2
CCOc1ccc(NC(=O)N(Cc2ccc(OS(=O)(=O)c3ccc(F)cc3)cc2)Cc2ccco2)cc1	16	13
O=C(OCc1cccc(Oc2ccccc2)c1)c1cc(=O)c2ccccc2o1	-12	-16
Cc1ccc(-c2nsc(C(=O)N3CCCC(C)C3)c2N)cc1 (configuration not stated)	-10	-11
O=C(c1cn(C2CCCCC2)nn1)N1C[C@H]2CC[C@H]1C2	-1	-5
O=S(=O)(c1cccs1)N1CCC(n2nc(-c3ccccc3)cc2-c2ccccc2)CC1	3	0
CCC(CC)n1nc(C)cc1NC(=O)c1ccc(C2CCCO2)s1 (configuration not stated)	1	-3
N#CC(=C1C(=O)Nc2ccc(Br)cc21)c1nnc2n1CCCCC2	7	72
O=S(=O)(CCSc1nnnn1-c1ccccc1)c1cc(Cl)ccc1Cl	1	1
O=S(=O)(NCc1cccnc1Oc1ccccc1)c1ccccc1F	20	9

Entries from the list above that have a tert-butyl group, in the order listed:
Molecule	NPYLR7 agonist	NPYLR7 agonist max-min
Cc1nc(C2(NC(=O)c3cc4ccc(C(C)(C)C)cc4[nH]3)CCCCC2)no1	14	14
CC(C)S(=O)(=O)Oc1ccc(CN(CC2CCCO2)C(=O)NC(C)(C)C)cc1 (configuration not stated)	-5	2

(listing goes on)
Molecule	NPYLR7 agonist	NPYLR7 agonist max-min
CC(=O)c1cccc(N2C(=O)C3C4c5ccccc5C(c5ccccc54)C3C2=O)c1 (configuration not stated)	-5	-11
CC(C)Cn1c(N)c(C(=O)CSc2nnc(-c3ccco3)o2)c(=O)n(C)c1=O	2	8
O=C(CCC1CCCCC1)NC1(C(F)(F)F)NC(=O)N(Cc2ccccc2)C1=O (configuration not stated)	-11	-13
CC(=N/N=C\c1cccnc1)C1=C(O)c2ccccc2C1=O	-3	-3
Cc1ccc(CC(=O)N2CCC3(CC2)c2ccccc2[C@@H](N)[C@@H]3O)cc1C	8	5
Cc1nn(Cc2ccccc2)c(C)c1C(=O)NCC1CCN(CC(F)(F)F)C1 (configuration not stated)	17	14
N#Cc1ccc(NC(c2ccccc2)c2ccccn2)nc1 (configuration not stated)	8	4
COCCN(Cc1c(-c2ccccc2)noc1N1CCCCC1)S(=O)(=O)c1ccc(C)cc1	15	20
CCn1c(C2CCCN(S(=O)(=O)c3cc(C)cs3)C2)nn(C)c1=O (configuration not stated)	3	3
C=CCc1ccccc1OCCn1cnc2ccccc21	3	0
CCCn1c(C)cc(C(=O)Cn2cnc3c2c(=O)n(C)c(=O)n3C)c1C	0	11
Cc1ccc(-n2c(=O)[nH]c3c(C(=O)Nc4ccccc4C)cn(C)c3c2=O)cc1	-2	-2
COc1ccc2sc(N(Cc3ccccc3)C(=O)c3ccc([N+](=O)[O-])o3)nc2c1	-3	-6
Cc1cc(C2CCC2)nc(N(C)Cc2cnccn2)n1	10	6
c1csc(-c2cc(CSc3ncn[nH]3)no2)c1	5	5
